Mtb H37Rv: Mycobacterium tuberculosis H37Rv growth inhibition, cell based, confirmatory dose response (AID 1949); 1.6% of 100,000 active; inhibition, % at 10 µg/mL, or IC50 in µg/mL where a hit was titrated; most inactive calls were filed without a number and no value below 0 was filed;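 active means confirmed in a dose series; inconclusive means about 50% or more but not retested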;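 further: bacteria grown 7 days with compound before Alamar blue readout; 0% = untreated bacteria and 100% = reference antibiotic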
Numbers without * were called inactive; i = inactive; ? = inconclusive. The list is partial; the hit share may differ from the screen's.

compound | Mtb H37Rv
COc1ccc(NC(=S)NNC(=O)c2ccccc2-n2cccc2)c(OC)c1 | i
O=C(CCCN1C(=O)c2ccccc2C1=O)Nc1ccccc1-c1ccccc1 | i
CCN(CC)C(=O)CCN(N)C1=NS(=O)(=O)c2ccccc21 | i
Fc1ccccc1C=NN1CCN(C2c3ccccc3-c3ccccc32)CC1 | i
O=C(O)c1ccc2c(=O)n(-c3ccccc3)c(=O)[nH]c2c1 | i
C=CCn1c(Cc2ccccc2)nnc1SCC(=O)Nc1nc2ccccc2s1 | i
Cc1nccn1CC(O)COc1ccccc1Br (stereo unspecified) | i
Nc1cc(=O)[nH]c(SCc2nc3ccccc3n2Cc2ccccc2)n1 | i
O=Cc1ccc(-c2ccc(Br)cc2)o1 | ?
Clc1ccc(OCCCCOc2ncnc3ccccc23)c(Cl)c1 | 19.2%
O=C(CN1C(=O)c2ccccc2C1=O)NCc1ccco1 | i
Cc1ccc(CN(CC(=O)NCC2CCCO2)S(=O)(=O)c2ccc(Cl)cc2)cc1 (stereo unspecified) | 1.2%
COc1cccc(CNCCO)c1OCc1ccccc1F | i
Cc1cccc(-n2c(C)n[nH]c2=S)c1 | i
COc1ccc(CSCC(=O)Nc2cc(Cl)ccc2Cl)cc1 | i
COC(=O)c1c(NC(=S)Nc2ccc(C(=O)N3CCCC3)cc2)sc2c1CCCCC2 | i
Cc1cc(C)c(C)c(S(=O)(=O)NCc2ccc(C(=O)Nc3ccncc3)cc2)c1C | i
Cc1cc(Br)ccc1OCC(=O)Nc1ccc2c(c1)OCCO2 | i
O=C(Nc1c(F)cccc1F)C1CCN(C(=O)c2cccs2)CC1 | i
CC(=O)Nc1ccc(N2C(C)=CC(C(F)(F)F)(C(F)(F)F)C(C#N)=C2N)cc1 | i
COc1cc(OC)c(NC(=O)c2ccoc2C)cc1Cl | i
Cc1cc2ncn(S(=O)(=O)c3ccc(Br)cc3)c2cc1C | i
Cc1nc(Nc2nc3ccccc3c(=O)[nH]2)nc2ccccc12 | i
Cc1ccc(SCCNC(=O)c2ccco2)cc1 | i
CCOc1ccc(/C=N/N2CCN(Cc3cccc4ccccc34)CC2)cc1OC | i
CC(C)(C)c1ccc(C(=O)Nc2ccccc2N2CCOCC2)cc1 | 6.0%
CC(NC(=O)CSc1nnc(-c2ccc(Br)cc2)o1)c1ccccc1 (stereo unspecified) | 0.3%
Cc1ccc(C(=O)Cn2cnc3ccccc3c2=O)cc1 | i
COc1ccccc1Cc1nc(-c2ccc(C)cc2)no1 | 7.4%
O=C(CSc1nnc(SCc2ccccc2)s1)Nc1ccccc1C(F)(F)F | 4.3%

compound | Mtb H37Rv
CCCN1CCN(C(=O)COc2ccc(Cl)cc2C)CC1 | i
O=c1c2ccccc2nc(/C=C/c2ccc(F)cc2)n1-c1ccccc1O | 8.0%
CCc1ccc(OCC(=O)Nc2ccc3c(c2)OCCO3)c(Br)c1 | 1.5%
C=CCNC(=O)c1ccccc1NC(=O)CN(c1cccc2ccccc12)S(C)(=O)=O | i
COc1ccc(Br)cc1C1C(C(=O)Nc2ccccc2)=C(C)NC2=C1C(=O)CC(C)(C)C2 (stereo unspecified) | i
CCOC(=O)c1ccc(NC(=O)/C(=C\c2ccccc2)NC(=O)c2ccccc2OC)cc1 | i
Cc1nc(C)c(-c2csc(Nc3ccccc3)n2)s1 | i
Cc1ccccc1OCC(=O)NC(=S)Nc1ccccc1N1CCN(S(C)(=O)=O)CC1 | i
CN1CCC(OC(=O)c2ccccc2F)CC1 | i
COc1ccc(Cc2nnc(NC(=O)c3cccc(F)c3)s2)cc1 | i
Cn1c(Cc2ccccc2)nnc1SCc1ccc(Cl)cc1 | i
CCn1c(CSCc2ccc(Cl)cc2)nnc1SCC(=O)Nc1c(C)cccc1C | 4.0%
COC(=O)C1=C(C)OC(N)=C(C#N)C1c1cc(CSc2ccc(Br)cc2)c(C)cc1C (stereo unspecified) | 5.4%
CCc1cc(C(=O)OC)c(NC(=S)Nc2ccc(C)cc2OC(F)F)s1 | i
CCOc1ccc2c(c1)C(C)=CC(C)(C)N2C(=O)CN1C(=O)c2cccc([N+](=O)[O-])c2C1=O | i
CCc1ccc(OC(C)c2nnc(SCC(=O)Nc3ncccc3C)n2C)cc1 (stereo unspecified) | i
C=CCn1c(SCC(=O)Nc2ccc(C)c([N+](=O)[O-])c2)nnc1-c1ccccc1O | i
COc1ccc(CCC(=O)Nc2ccc(-c3noc(-c4ccc(OC)c(OC)c4)n3)cc2)cc1 | i
C=CCN(c1ccc(C(=O)NCCSC(C)(C)C)cc1)S(C)(=O)=O | i
Fc1ccccc1Nc1nc(-c2cccnc2)cs1 | i
CCOC(=O)N1CCN(c2nc3ccccn3c(=O)c2C=O)CC1 | ?
COC(=O)c1ccccc1NC(=O)c1ccc(NC(=O)CSc2ccccc2)cc1 | i
c1ccc(-c2csc(Nc3cccnc3)n2)cc1 | i
COc1cc(NC(=O)COc2ccc(C(C)C)cc2Br)c(OC)cc1Cl | i
COc1ccc(-c2cc(C(F)(F)F)n3nc(C(=O)NCc4cccnc4)cc3n2)cc1OC | i
CCOc1cccc(C2CC(=O)Nc3cc(OC)c(OC)cc32)c1 (stereo unspecified) | i
CCOc1cc(/C=C2/C(=O)N(c3ccccc3)N=C2C)ccc1OC(=O)c1cccs1 | ?
O=C(Nc1ccc(N2CCN(Cc3ccccc3F)CC2)cc1)c1ccc([N+](=O)[O-])o1 | 0.28µg/mL*
CC(=O)Nc1ccc(S(=O)(=O)N2CCN(c3cc(Cl)ccc3C)CC2)cc1 | 1.2%
COc1ccc(C2Nc3cc(C)c(C)cc3NC3=C2C(=O)CC(C)(C)C3)cc1OC (stereo unspecified) | i

compound | Mtb H37Rv
O=C(COc1cccc([N+](=O)[O-])c1)N1CCOCC1 | i
C=COCCNC(=O)C(=O)Nc1ccc(F)cc1 | i
CN(C)c1nc(OCC(=O)NC(C)(C)C)nc(N(C)C)n1 | 0.1%
O=C(COc1ccc2ccccc2c1Br)NCc1ccccn1 | 1.4%
CNC(=O)CN(Cc1ccc(Cl)cc1)S(=O)(=O)c1c(C)cc(C)cc1C | i
COc1ccccc1CNC(=O)C1CCN(S(C)(=O)=O)CC1 | i
COC(=O)c1ccccc1NC(=O)CN(Cc1ccccc1F)S(=O)(=O)c1ccc(C)cc1 | i
CC(=O)c1cccc(NC(=O)c2ccc(NS(C)(=O)=O)cc2)c1 | i
CCOc1cc(C(=O)Nc2c(C)cc(Br)cc2C)cc(OCC)c1OCC | i
CCN(CC)CCSc1nnc2c3cc(C)ccc3n(C)c2n1 | 0.3%
Cc1ccc(OC(=O)CCc2ccccc2)c(C(C)(C)C)c1 | 2.6%
COc1cc(/C=C/c2[nH]c(=O)[nH]c(=O)c2[N+](=O)[O-])ccc1OCc1ccccc1C#N | i
COC(=O)CCSc1nccn1Cc1ccccc1 | i
COc1ccc(-c2noc(-c3ccccc3Cl)n2)cc1OC | i
C=C(C)CNC(=S)Nc1ccc(F)c(Cl)c1 | i
CCc1ccc(-n2c(SCC(=O)Nc3ccc(Br)cc3Cl)nnc2-c2ccncc2)cc1 | i
CCCNC(=S)Nc1cc(C)ccc1C | 6.8%
CCOC(=O)CCc1c(C)c2cc(Cl)c(OCC(=O)c3ccc(N4CCCC4)cc3)cc2oc1=O | i
CCOc1ccc(C(=O)NC(=S)Nc2cccc(NC(=O)C(C)C)c2)cc1Br | i
COc1ccc(CCNC(=O)CN(C)S(=O)(=O)c2ccc(Br)cc2)cc1 | i
COc1ccc(C2CC(=O)C3=C(C2)Nc2ccc(C)cc2N(C(C)=O)C3c2cccs2)cc1 (stereo unspecified) | i
O=C(O)CCCC(=O)NCCCCc1ccccc1 | i
CCOC(=O)CNC(=O)c1cnn2cccnc12 | i
CCN(CC)C(=O)c1sc(NC(=O)CCc2ccccc2)c(C(=O)OC)c1C | i
CCOc1ccc(C(=O)Nc2ccc(S(=O)(=O)NC(C)(C)C)cc2)cc1OCC | i
COC(=O)Nc1nc(-c2cccc(Br)c2)cs1 | i
N#C/C(=C\c1c[nH]c2ccccc12)c1ccccc1 | 15.2%
Cc1cc(C)cc(C(=O)NC(=S)Nc2cc(Cl)cc(Cl)c2)c1 | 0.2%
COc1ccccc1CC(=O)N1CCN(C)CC1 | i
CCOC(=O)C(N)CSC1CC(=O)N(CCc2ccccc2)C1=O (stereo unspecified) | i

A portion from further up, for reference:
compound | Mtb H37Rv
O=C(COc1cccc([N+](=O)[O-])c1)N1CCOCC1 | i
C=COCCNC(=O)C(=O)Nc1ccc(F)cc1 | i
CN(C)c1nc(OCC(=O)NC(C)(C)C)nc(N(C)C)n1 | 0.1%

Reformatted: 2 of the compounds above
SMILES: Cc1ccc(C(=O)Cn2cnc3ccccc3c2=O)cc1
  Mtb H37Rv: i
SMILES: CCOC(=O)N1CCN(c2nc3ccccn3c(=O)c2C=O)CC1
  Mtb H37Rv: ?

Next structures
compound | Mtb H37Rv
C=CCNC1CC(=O)N(c2ccc(C(=O)OCC)cc2)C1=O (stereo unspecified) | i
Cc1ccc(C(=O)Nc2ccc(I)cc2F)c(C)c1 | i
O=C1C2C3C=CC(C2C(=O)N1c1ccc(F)cc1)C1C(=O)N(c2ccc(F)cc2)C(=O)C31 (stereo unspecified) | i
O=C(O)Cn1ncc2ccccc2c1=O | i
COc1ccc(OCC(=O)Nc2ccc(S(=O)(=O)NC3CCCCC3)cc2)cc1 | i
CCCC(=O)Nc1ccc(Cl)c(NC(=O)c2cccc(OC)c2)c1 | i
O=C(O)CCc1ccc(-c2ccc(F)cc2)n1CC1CCCO1 (stereo unspecified) | i
Cc1ccc(NC(=O)COc2ccc(C#N)cc2)c(Br)c1 | i
Cc1cc(C)nc(SCC(=O)NNC(=O)c2cccs2)n1 | i
CC(=Nc1ccn(Cc2ccccc2)n1)c1c(C)[nH]n(-c2ccc([N+](=O)[O-])cc2)c1=O | i
O=S(=O)(c1ccccc1F)N1CCN(C(c2ccccc2)c2ccccc2)CC1 | 0.4%
COc1ccc(NC(=O)Nc2ccc(C(C)=O)cc2)c(OC)c1 | i
O=C(CN(c1ccc2c(c1)OCCO2)S(=O)(=O)c1ccccc1)Nc1ccccc1C(F)(F)F | i
Cc1ccc(S(=O)(=O)N(C)CC(=O)Nc2ccc(Cl)cc2)cc1 | 0.6%
Cc1cc(C)c(S(=O)(=O)Nc2ccc(S(=O)(=O)Nc3ccc(C)c(C)c3)cc2)c(C)c1 | 20.7%
CCN1C=C(C(=O)OC)C(c2cccc(OC)c2OC)C(C(=O)OC)=C1 | i
COc1ccc(NC(=O)COc2ccc(S(=O)(=O)NC(C)C)cc2)c(OC)c1 | i
O=C(COc1ccc(S(=O)(=O)N2CCCC2)cc1)Nc1cc(Cl)ccc1Oc1ccccc1 | i
O=C(NC(=S)Nc1ccc2oc(=O)ccc2c1)c1cccc(I)c1 | 0.7%
Cc1cc(C(=O)N(Cc2ccccc2)c2ccccc2)no1 | i
COc1ccc(OC)c(NC(=O)CSc2nnc(-c3cccnc3)s2)c1 | 1.6%
COc1cc(NC(=O)c2sc3ccccc3c2Cl)ccc1NC(=O)c1cc2ccccc2o1 | i
C=CCn1c2ccccc2c2nnc(SC(CC)C(=O)Nc3nc4ccccc4s3)nc21 (stereo unspecified) | 0.4%
NC(=O)c1cc2ccc(O)cc2oc1=O | i
CCCNC(=O)c1c(N)sc2c1CCCCC2 | i
O=C(COc1ccc(Cl)cc1Br)Nc1ccc2c(c1)OCO2 | i
CCOc1ccc(CC2S/C(=N\N=C\c3ccccc3Cl)NC2=O)cc1 (stereo unspecified) | 3.7%
Cc1oc2ccc(NS(=O)(=O)c3ccc(Br)cc3)cc2c1C(=O)O | i
COc1cc(CNCCCN(C)C)ccc1OCc1ccc(F)cc1Cl | i
COc1cc(C(=O)Nc2sc3c(c2C(=O)NCc2ccco2)CCCC3)cc(OC)c1OC | i

compound | Mtb H37Rv
NC(=O)c1c(NC(=O)Cn2c(=O)oc3ccccc32)sc2c1CCCC2 | i
CCCCC(C(=O)Nc1cc(C)ccc1C)N1C(=O)C2C3c4ccccc4C(c4ccccc43)C2C1=O (stereo unspecified) | i
COc1ccc(CC(=O)Nc2c(C)cc(C)cc2C)cc1OC | i
Cc1cc(C)c(OCCOCCN2CCNCC2)c(C)c1 | i
NC1=NC(=Nc2ccc3c(c2)OCCO3)c2ccccc21 | i
COc1ccccc1NC(=O)c1nn(C)c(=O)c2ccccc12 | i
O=C(Nc1cc(Cl)c(O)c(Cl)c1)c1ccc(NC(=O)c2ccco2)cc1 | i
CC(C)(C)NS(=O)(=O)c1ccc(OCC(=O)NCCC2=CCCCC2)cc1 | i
O=C(Nc1sc2c(c1C(=O)NCc1ccco1)CCCC2)c1ccc(Cl)cc1Cl | i
COCCNS(=O)(=O)c1ccc(Cl)c(C(F)(F)F)c1 | i
COc1cc(OC)cc(C(=O)NCCSCc2ccco2)c1 | 1.7%
CCCSc1nc2ccc(I)cc2c(=O)n1-c1ccccc1C | 6.6%
COc1ccc(OC)c(NS(=O)(=O)c2ccc(NS(=O)(=O)c3cccs3)cc2)c1 | i
CN(C)S(=O)(=O)N(CC(=O)Nc1c(F)cccc1F)c1ccccc1 | i
Cc1ccc(SCCNC(=O)C(CO)(CO)CO)cc1 | i
COC(=O)c1c(N2C(=O)C3C4CCC(O4)C3C2=O)sc2c1CCCCCC2 (stereo unspecified) | i
Cc1cc(C)c(C#N)c(SCC(=O)Nc2ccccc2F)n1 | 1.2%

Bioassay records from PubChem.
